Screening results: PubChem, ICCB-Longwood Screening Facility, Harvard Medical School
CapD inh: inhibitors of Bacillus anthracis CapD enzyme; purified CapD enzyme, fluorescence intensity read-out; active compounds read low; some hits fall short of the stated cut; z-score (concentration not given with the values); actives 0.23% (n = 140,000);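 active = z-score under -4 in either of two replicates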;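 also: stock transfer was 100 nL into about 40 µL; score is relative to mean and spread of the plate; one replicate is shown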
AID504770: E. coli YBA685 growth inhibition, screen for V. cholerae RctB inhibitors; AID 504770; z-score (test concentration not listed); E. coli YBA685 rctB-dependent plasmid, OD600 growth, 3 h; active compounds read low; actives 0.27% (n = 130,000);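 active = z-score under -2 on both plates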;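 also: wells of about 30 µL received 100 nL stock; score is relative to mean and SD of the test wells; the first replicate is given; strong numbers were not always called active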
* marks the source's active call; other numbers are inactive results; / = not tested or not shown.

Results follow in this order: CapD inh, AID504770
> OC(CNc1ccccc1Cl)Cn1nnnc1-c1ccccc1 (stereo not drawn)
    -0.065, -0.7
> CCc1cc2c3c([nH]c2cc1S(=O)(=O)NC(C)CC)CCCC3=O (stereo not drawn)
    0.21, 0.8
> O=C(CCc1nc(-c2ccc(Cl)cc2)no1)N1CCCC1
    0.38, -0.35
> Cc1cccc(-n2c(CNC(=O)c3ccc(S(=O)(=O)N(C)C)cc3)nnc2SCC(=O)Nc2nnc(C)s2)c1
    0.025, /
> CCOC(=O)C1C(OC(=O)c2ccccc2)CC2CCC1N2C (stereo not drawn)
    0.18, /
> CCN(CC)S(=O)(=O)c1ccc(-c2ccc(/C=N/NC(=O)CNc3ccc(OC)cc3)o2)cc1
    /, -0.25
> CCOc1ccc(N2C(=O)C3C(C2=O)N2CCCN2C3c2ccc(F)cc2)cc1 (stereo not drawn)
    0.18, -0.3
> O=C(/C=C/c1ccco1)N(Cc1ccccc1)c1ccccn1
    1.9, -1.1
> Cc1ccc(-n2c(SCCn3ccnc3)nnc2-c2ccc(Cl)cc2)cc1
    /, 0.5
> O=c1c2cnn(-c3ccccc3)c2ncn1/N=C/c1ccc(Cl)cc1
    0.85, -0.45
> COC(=O)c1sc2ccccc2c1OS(=O)(=O)c1ccc(Cl)cc1
    -0.41, /
> Cc1cc(C)c(C#N)c(OCC(=O)Nc2ccc(Oc3ccccc3)cc2)n1
    10, /
> COc1ccc2c3c([nH]c2c1)C(C)(C(=O)O)NCC3 (stereo not drawn)
    5.5, -0.05
> O=S(=O)(NCc1ccco1)c1ccc2c(c1)C(=NO)c1cc(S(=O)(=O)NCc3ccco3)ccc1-2
    3.4, /
> Clc1ccccc1-c1nc2nnnn2c2ccc(Br)cc12
    -0.49, /
> Cn1cccc1/C=C1\CCc2ccccc2C1=O
    2, 0.2
> O=C(N/N=C/c1ccc(O)c(O)c1O)c1ccccc1-n1cccc1
    /, -0.6
> COc1ccc(C2C(C#N)C(C#N)N3CCCN23)cc1 (stereo not drawn)
    -0.09, -1.2
> CC1C(=O)N(c2ccc(Cl)c(Cl)c2)C(=N)N1c1nc(N(C)C)nc(N(C)C)n1 (stereo not drawn)
    -0.32, /
> COc1ccc(N2C(=O)CSC2c2cc(Br)ccc2OC)cc1 (stereo not drawn)
    0.59, /
> CCN1C(=S)NC2c3cc(C)ccc3OC13CCCC23 (stereo not drawn)
    0.05, 0.3
> OC1CCCCC1Sc1nc2ccccc2s1 (stereo not drawn)
    -0.74, -0.6
> O=C1CSCC(=O)N1c1ccc(-n2nc(C(F)(F)F)cc2C(F)(F)F)cc1
    0.11, 0.2
> COc1ccc(S(=O)(=O)NC(CC(=O)N2CCC3(CC2)OCCO3)c2ccco2)cc1 (stereo not drawn)
    0.33, 0.05
> COc1ccccc1OC(=O)NC(C)C
    0.79, 0.75
> COC(=O)C1CN(C(=O)c2ccc(C)cc2)c2ccccc2O1 (stereo not drawn)
    -0.38, -0.4
> CCCN(C(=O)c1ccc(S(=O)(=O)N2CCCC2)cc1)C1CCS(=O)(=O)C1 (stereo not drawn)
    /, -0.45
> O=C(Cc1csc(-c2ccccc2)n1)NNC(=O)NC1CCN(Cc2ccccc2)CC1
    0.38, /
> Cc1cc(C)cc(NC(=O)N2CCC(c3nnc(-c4ccccc4)o3)CC2)c1
    -0.025, /
> CC1CCc2nn(CC(=O)NC3CCCCCC3)cc2C1 (stereo not drawn)
    -0.64, -0.1

In a second layout: 2 of the compounds above.
SMILES: CCN1C(=S)NC2c3cc(C)ccc3OC13CCCC23 (stereo not drawn)
  CapD inh: 0.05
  AID504770: 0.3
SMILES: OC1CCCCC1Sc1nc2ccccc2s1 (stereo not drawn)
  CapD inh: -0.74
  AID504770: -0.6

Further records
Results follow in this order: CapD inh, AID504770
> N#CC(c1cccs1)c1ncc(C(F)(F)F)cc1Cl (stereo not drawn)
    0.12, -0.45
> COc1ccc(C2Nc3ccccc3C(=O)N2Cc2ccco2)cc1COc1ccccc1F (stereo not drawn)
    48, /
> Cc1cc(C)n(-c2nc3ccccc3nc2N2CCCC2)n1
    /, -0.6
> O=C(NCCOc1nc(N2CCOCC2)nc(N2CCOCC2)n1)Nc1ccccc1
    -0.29, -0.75
> Cc1cc(C(=O)OCC(=O)Nc2ccccc2C(=O)NC(C)c2ccccc2)no1 (stereo not drawn)
    /, 0.2
> COc1cc(C(=O)Nn2c(-c3cccc(Cl)c3)nc3ccccc3c2=O)cc(OC)c1OC
    0.02, /
> COc1ccc(OCCSc2cccc[n+]2[O-])cc1
    /, -1
> FC(F)(F)Oc1ccc(N=Cc2c(Cl)nc3sccn23)cc1
    -1.4, -0.25
> Nc1nc(CN2CCOCC2)nc2ccccc12
    /, 0.15
> CC1CCCC(C)N1C(=O)Cn1cnc(NC(=O)c2cc(-c3ccc(F)cc3)no2)n1 (stereo not drawn)
    -0.005, -0.65

An excerpt of these results, as labelled records:
O=C(NCCOc1nc(N2CCOCC2)nc(N2CCOCC2)n1)Nc1ccccc1
  CapD inh: -0.29	AID504770: -0.75
Cc1cc(C(=O)OCC(=O)Nc2ccccc2C(=O)NC(C)c2ccccc2)no1 (stereo not drawn)
  CapD inh: /	AID504770: 0.2
COc1cc(C(=O)Nn2c(-c3cccc(Cl)c3)nc3ccccc3c2=O)cc(OC)c1OC
  CapD inh: 0.02	AID504770: /
Nc1nc(CN2CCOCC2)nc2ccccc12
  CapD inh: /	AID504770: 0.15

2 neighbouring compounds already listed:
Results follow in this order: CapD inh, AID504770
> COc1ccc(C2Nc3ccccc3C(=O)N2Cc2ccco2)cc1COc1ccccc1F (stereo not drawn)
    48, /
> Cc1cc(C)n(-c2nc3ccccc3nc2N2CCCC2)n1
    /, -0.6

New compounds follow
Results follow in this order: CapD inh, AID504770
> Cc1cc(C)c2cc(C(=O)Nc3ccc4c(c3)OCO4)[nH]c2c1
    4.6, 0.9
> Cc1ccc2c(c1)c1c3n2CCN(Cc2ccccc2)C3CCC1 (stereo not drawn)
    0.14, /
> CCCNC(=O)c1cc2sc(Cl)cc2n1C
    -0.4, -1.1
> CN(C)C(CC(=O)Nc1ccc(O)cc1)C(=O)O (stereo not drawn)
    -0.005, 0.5
> O=c1[nH]c(=S)n(-c2ccc(Br)cc2)c2ncccc12
    -0.28, /
> CCCC(=O)Nc1nnc(CCC)s1
    /, -0.9
> CCN(CC)c1n[nH]nc1-c1cccc(Cl)c1
    32, -0.2
> NC(=O)c1cc(-c2cccnc2)no1
    -0.1, 0.35
> CCOC(=O)C1=C(N)Oc2n[nH]c(C)c2C1c1cccs1 (stereo not drawn)
    -2.2, -2.2
> O=C(CC1SC(=Nc2ccccc2)N(c2ccccc2)C1=O)Nc1ccc([N+](=O)[O-])cc1 (stereo not drawn)
    -0.16, /
> CC(C)CCC1(C)NC(=S)N(c2ccc(Cl)cc2)N1 (stereo not drawn)
    -0.18, /
> O=C(c1ccc2c(c1)N(Cc1ccc(F)cc1)CCS2)N1CCC2(CC1)OCCO2
    46, -0.35
> CC(C)OC(=O)NCCN1C(=O)C2C3C=CC(C3)C2C1=O (stereo not drawn)
    -0.03, 1.1
> CC(C)(C)C(=O)CSc1nnc2n(-c3ccccc3)c(=O)c3ccccc3n12
    /, 0.25
> CCOc1ccc(/C=C(\C#N)c2nc(-c3cc4c(ccc5ccccc54)oc3=O)cs2)cc1
    0.99, /
> CN(C)c1ccc(C(CNS(C)(=O)=O)N2CCCC2)cc1 (stereo not drawn)
    0.55, -0.9
> COc1ccc(-c2n[nH]c(=S)n2/N=C/c2ccccc2Br)cc1OC
    -0.79, -0.15
> CCc1cc(CC)c(/C=N/O)c(CC)c1/C=N/O
    0.23, -0.25
> COc1ccc2oc(/C=C/N(C)C)c(C(=O)c3ccc(Br)cc3)c2c1
    -3.3*, 0.4
> O=C(NCc1ccccc1)c1ccc(COc2ccccc2Br)o1
    1.3, -0.25
> O=c1/c(=C/C=C/c2ccccc2)sc2nc3ccccc3n12
    1.6, -0.35
> O=C1CCCC2=C1C(c1cccc(Br)c1)C1=C(CCCC1=O)N2
    -1, /
> Cc1nn(C2CCS(=O)(=O)C2)c(Cl)c1/C=C1\C(=O)N(C)C(=S)N1C (stereo not drawn)
    /, 0.2
> O=C(Nc1ccccc1C(=O)Nc1ccc(Br)cc1)c1ccccc1
    3, /
> COc1cc(C(=O)N2CCN(CC(=O)Nc3ccc(Cl)c(C(F)(F)F)c3)CC2)cc(OC)c1OC
    /, -0.3
> COc1cc2c3cc1Oc1c(OC)c(OC)cc4c1[C@@H](Cc1cccc(c1)Oc1ccc(c(O)c1)C[C@@H]3N(C)CC2)N(C)CC4
    /, 0.15
> O=S(=O)(Nc1ccc(-n2cccc2)cc1)c1ccc(Cl)cc1Cl
    -0.58, /
> O=C1CC(n2nc(Cc3ccccc3)n(-c3ccccc3)c2=S)C2COC1O2 (stereo not drawn)
    -0.4, /
> CCOc1ccc(C2c3[nH]c4ccccc4c3CCN2C(=O)c2cccc(Br)c2)cc1 (stereo not drawn)
    -0.34, /
> CC1CC(C)CN(C(=O)COC(=O)CCc2ccc(S(=O)(=O)N3CCOCC3)cc2)C1 (stereo not drawn)
    /, -1.4
> COc1ccc(N(C(=O)c2ccc(F)cc2)C2=CC3CCC(C2)N3C)cc1 (stereo not drawn)
    -0.005, /
> O=C(CSCCOc1ccccc1F)Nc1ccnn1C1CCCC1
    /, -0.05
> COc1ccc(C2CC(c3ccccc3)=NN2C(=O)Cn2cnc3c2c(=O)n(C)c(=O)n3C)cc1 (stereo not drawn)
    /, 1.8
> O=C(Cc1ccccc1O)c1ccccc1
    0.52, -0.15
> Cn1nc(C(C)(C)C)cc1C(=O)Oc1ccc(Cl)cc1
    -0.16, -0.65
> COc1cc2c(cc1OC)C(C)N(C(=O)NC1CC(=O)N(c3ccc4c(c3)OCCO4)C1)CC2 (stereo not drawn)
    /, 2.4
> O=C(CSc1ccccc1O)N1CCOCC1
    0.11, -0.65
> CCc1cc2c(=O)c(-c3nc4ccccc4n3C)c(C)oc2c(CN2CCCCC2)c1O
    11, -1.1
> CC(=O)N[C@@H](CS)C(=O)O
    /, 0.15
> CCOC(=O)c1c(-c2ccccc2)oc2ccc(O)cc12
    57, -0.1
> CCOC(=O)CNc1nc(N2CCOCC2)nc(N2CCOCC2)n1
    0.72, /
> NS(=O)(=O)c1ccc(Cl)nc1
    /, 2
> Cn1c2nc3ccccc3nc2c2c(=O)n(C3CCCC3)cnc21
    30, 0.25
> CN(c1c(C#N)c(C(F)(F)F)nn1C)N(S(C)(=O)=O)S(C)(=O)=O
    0.24, /
> CC1=C(C(=O)Nc2ccccc2)C(c2ccccn2)n2ncnc2N1 (stereo not drawn)
    -1.3, /
> O=C(NC1(C(=O)O)CC1)OCC1c2ccccc2-c2ccccc21
    -0.14, -0.7
> COC(=O)CSc1nc(N)c2c3c(sc2n1)CC(C(C)(C)C)CC3 (stereo not drawn)
    -0.28, /
> Cc1occc1-c1n[nH]c(=S)o1
    /, -1.2
> COc1ccc(C(=O)NCc2nnc(SCC(=O)N3N=C(c4cccs4)CC3c3ccc(C)cc3)n2C)cc1 (stereo not drawn)
    17, /
> CN(N)c1nc2ccccc2nc1C(F)(F)F
    -0.3, -1.4

Next records:
Results follow in this order: CapD inh, AID504770
> Cn1c(SCc2c[nH]c3cc([N+](=O)[O-])ccc23)nc2sc3c(c2c1=O)CCCC3
    0.79, /
> Cc1nn(-c2ccccc2)c2[nH]cc(C(=O)Nc3ccccc3)c(=O)c12
    /, -0.1
> COC(=O)CSC1=C(C#N)C(=O)NC2(CCCCC2)S1
    -3.2, 1.4
> O=C(COc1ncnc2sc3c(c12)CCC3)NCCN1C(=O)CSC1=O
    /, -0.8
> CC1Cc2ccccc2N1CC(=O)Nc1ccc(SC(F)F)cc1 (stereo not drawn)
    /, -0.3
> c1ccc2c(c1)nc(-c1ccncc1)n1nnnc21
    0.85, -0.05
> C=C1C(=O)OC2C1CCC1(C)CCC=C(C)C21 (stereo not drawn)
    0.1, /
> COc1ccccc1N(C)S(=O)(=O)c1ccc(Cl)cc1
    -0.27, -0.6
> COc1ccc(-c2csc(C3COc4ccccc4O3)n2)c(OC)c1 (stereo not drawn)
    0, -0.65
> COc1ccccc1Nc1nc(N2CCOCC2)c2ccccc2n1
    0.65, /
> CCCC1C(=O)CC(c2ccco2)NC1c1ccco1 (stereo not drawn)
    -0.17, -0.45
> COc1cc(C(=O)NNS(=O)(=O)c2cc(C)c(Cl)c(C)c2)c(-n2c(C)ccc2C)cc1OC
    1.8, /
> O=C(Nc1cccc2ccccc12)c1ccccc1
    0.43, /
> Cn1nnnc1SCC(=O)NN1C(=O)NC(C)(c2ccccc2)C1=O (stereo not drawn)
    /, -0.7
> O=C(Nc1ccc(Cl)cc1)Nc1csc(N2CCCCC2)n1
    /, 1
> COCCOC(=O)c1c(C)oc2ccc(OCc3cc(C(=O)OC)oc3C)cc12
    0.26, -0.15
> COC(=O)c1cc2c(ccn2-c2ccc(F)cc2)n1CC(=O)N1CCCCC1
    /, 0.05
> Cc1ccc(N2C(=O)C(F)(F)C2c2ccccc2)cc1 (stereo not drawn)
    0.12, 0.6
> CCc1cc2c(NC(C)C(=O)O)ncnc2s1 (stereo not drawn)
    /, 0.3
> O=C1/C(=C/c2ccc(-c3cc(Cl)ccc3Cl)o2)C=C(c2ccccc2)N1c1ccc(F)cc1
    -0.17, /
> CCOC(=O)c1ccc([N+](=O)[O-])c(CS(=O)(=O)c2ccc(Cl)cc2)c1
    0.57, /
